Screens: PubChem BioAssay, several laboratories
Mtb hypoxia rep – Mtb hypoxia fluorescent reporter inhibition. M. tuberculosis hypoxia-regulated fluorescent reporter, fluorescence. fluorescence inhibition, % (concentration not given with the values). 300,000 compounds, 0.1% hits. AID 1159583;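 active means 35 to 45% if threefold the growth effect, above 45% if 1.5-fold the growth effect; inactive means the rest, general growth blockers included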;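 further: wells of about 50 µL received 100 nL stock; 0% = vehicle wells and 100% = reference inhibitor wells; whole bacteria with a GFP reporter of the hypoxia response; strong numbers were not always called active; many hits fall short of the cut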
Sa ugtP lethal – growth inhibition of S. aureus ugtP deletion strain | S. aureus RN4220 ugtP deletion, OD600 growth, 16 h; some inactives read as strong as hits | growth inhibition, % (test concentration not listed) | 330,000 compounds, 0.54% hits;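 active means z-score under -3 and OD600 up to 0.15 on both plates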;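 further: plate controls were untreated wells for no effect and antibiotic for full effect; wells of about 80 µL received 100 nL stock; the first replicate is given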
PrP UTR inh – inhibition of PrP 5' UTR reporter expression; cell-based PrP 5' UTR mRNA reporter, plate reader; inhibition, % (no concentration beside the values); 340,000 compounds, 0.35% hits;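 active means every replicate at 50% or more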;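 further: 0 = median of the neutral control wells; tested in H4 reporter cells; numbers are from one replicate; inactives centre near -14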
RN4220 kill – kills Staphylococcus aureus RN4220; S. aureus RN4220 growth, OD600, 16 h; inhibition, % (concentration not given with the values); 330,000 compounds, 0.33% hits;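 active means z-score of -3 or lower and OD600 up to 0.18 on both plates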;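 further: plate controls were untreated cells for no effect and reference antibiotic for full effect; stock transfer was 100 nL into about 80 µL; one replicate is shown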
BJeLR lethal – BJeLR cell viability loss; BJeLR (HRASV12) viability, CellTiter-Glo ATP luminescence, 48 h; reference of the scale not given here; inhibition, % (test concentration not listed); 300,000 compounds, 0.17% hits;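 active means replicate mean above 50%; inconclusive means above 50% but judged a plate artefact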;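 further: 50 nL library stock added to about 25 µL; numbers are from one replicate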
Bead autofluor – counter-screen for toxin protease inhibitors: compound fluorescence. fluorescence intensity (concentration not given with the values). AID 624483. compound autofluorescence counterscreen, microsphere flow cytometry; hits give high values. 360,000 compounds, 3.1% hits;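 active means at least 3 SD above the mean of all compounds, about 16000 in these data; inconclusive means too few beads counted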;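 further: 100 nL of 1 mM stock went into each well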
Mtb hypoxia rep growth – also measured in Mtb hypoxia rep; calls as there; growth inhibition, %; measured here: M. tuberculosis growth (absorbance);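 0% = vehicle and 100% = reference antibiotic; read after six days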
* hit, by the source's call; ? = inconclusive; . = no result given.

SMILES	Mtb hypoxia rep	Mtb hypoxia rep growth	Sa ugtP lethal	PrP UTR inh	RN4220 kill	BJeLR lethal	Bead autofluor
CNC(=O)CN1C(=O)NC2(CCc3ccccc32)C1=O (configuration not stated)	-7	12	-1	-10	0.4	14	4646
COc1ccc(C(c2nnnn2C2CCCC2)N2CCN(C(=O)c3ccco3)CC2)cc1OC (configuration not stated)	.	.	.	-6	.	-4	3877
Cc1ccc2nc(SCC(=O)Nc3ccc(C(N)=O)cc3)[nH]c2c1	4	10	15	-24	-4.0	-4	?
COc1ccc(-c2noc(C3CCCN(C(=O)c4ccc(C)cc4)C3)n2)cc1 (configuration not stated)	11	19	11	-49	0.8	3	3844
CC(=O)OC1(c2ccccc2)CCN(C)CC1(C)C (configuration not stated)	6	5	3	-33	6.7	4	4131
COc1ccc(C2Nc3ccccc3C(=O)N2c2ccc(C)cc2)cc1Cn1cc([N+](=O)[O-])cn1 (configuration not stated)	11	0	15	-64	-7.9	-5	8306
Cc1cc(C)n(CCC(=O)N/N=C/c2c(O)ccc3ccccc23)n1	.	.	.	37	.	15	3477
CCOC(=O)c1c(NC(=S)Nc2ccccc2)sc2c1CCCCC2	4	7	-3	-22	4.2	3	10509
CC(=O)Nc1nc2c(c3c1c(=O)oc1ccccc13)CC(C)CC2 (configuration not stated)	-2	7	-4	.	-2.3	15	.
O=C(C1CCC1)N1CCc2cc(S(=O)(=O)Nc3ccc4c(c3)OCCO4)ccc21	.	.	7	-10	0.4	10	4526
Cc1ccc2[nH]c(O)c(N=NC(=O)c3ccc(NS(=O)(=O)c4cccs4)cc3)c2c1	0	-5	8	-1	-0.4	-6	4696
CN(C)CCCOC(=O)c1ccccc1Cl	.	.	-2	-24	-2.0	-4	2417
COCCCNC(=O)C[C@H]1C[C@H](C(=O)N(C(C)C)C(C)C)[C@@]2(C)c3[nH]c4ccc(Cl)cc4c3CCN2C1=O	0	4	-5	-16	0.1	.	3799
O=C(CSCc1ccccc1)N1CCN(c2ccc(F)cc2)CC1	6	-3	-7	-16	13	-6	8466
CN(Cc1ccccc1)C(=O)CN1C(=O)NC(C)(c2ccc(C(C)(C)C)cc2)C1=O (configuration not stated)	6	12	7	-20	0.2	-10	5516
Cc1ccc2sc(N(CCCN(C)C)C(=O)c3ccc(S(=O)(=O)N(C)Cc4ccccc4)cc3)nc2c1C	17	1	-17	-71	14	-1	6745
CCCOc1ccc(C2NC(=O)CCC2[N+](=O)[O-])cc1 (configuration not stated)	12	-4	2	-15	5.1	-1	3666
COc1ccc(N2CCN(CC(=O)Nc3ccccc3SC)CC2)cc1	9	11	-4	-32	9.1	0	4186
CC(C)CC(NC(=O)c1nc[nH]c1C(=O)NC(CC(C)C)C(=O)OC(C)(C)C)C(=O)OCc1ccccc1 (configuration not stated)	19	6	4	.	-1.0	.	.
COc1ccc(C=NNC(=O)c2ccc(Cl)cc2)cc1Cn1cc(Cl)cn1	-1	-4	-19	.	-2.1	.	.
COc1cc(CO)ccc1OCC(=O)Nc1ccc(Br)cc1	21	10	2	-44	2.0	1	4580
CCCOP(=O)(c1ccc(N(C)C)cc1)C(O)c1c(Cl)cccc1Cl (configuration not stated)	11	0	-2	-19	2.3	9	3146
O=C(O)CCc1ccc(-c2ccc(Cl)cc2)n1NC(=O)c1ccc(O)cc1	3	11	1	-12	1.0	11	3522
CC1CC(C)CN(c2cc(=O)n(Cc3ccc(F)cc3)c(=O)[nH]2)C1 (configuration not stated)	-1	10	-5	-28	-13	11	5221
Nc1nnnn1N=Cc1ccc(Cl)c([N+](=O)[O-])c1	4	1	8	.	2.6	.	.
O=C(N/N=C/c1ccc(OC(=O)c2ccccc2)cc1)c1cccc(O)c1	.	.	.	-12	.	-3	3678
COc1cc(OC)nc(NC(=O)NS(=O)(=O)c2ccc(F)cc2)n1	3	0	-1	-30	-0.4	-4	4025
CCCCOCCOCCOCCCC	5	-1	13	-29	4.3	.	5014
COc1cc(/C=N\NC(=O)CNC(=O)C(c2ccccc2)c2ccccc2)ccc1O	.	.	.	-25	.	1	4432
COC/C=C/C1=CC2=CC(=O)C(C)(OC(=O)c3cnc4ccccc4n3)C(=O)C2=CN1C1CC1 (configuration not stated)	.	.	.	13	.	4	2715
O=C(NC1CCCC1)C(c1cccs1)N(Cc1ccco1)C(=O)c1csnn1 (configuration not stated)	6	11	4	-1	5.0	0	3322
C=CCNc1sc(C(=O)c2ccccc2)c(N)c1C#N	.	.	0	0	1.9	6	2344
Cc1ccc(Nc2nc(C)c3c(n2)CC(C)CC3=O)c(C)c1 (configuration not stated)	8	-4	1	-21	4.2	4	4550
CCOc1ccccc1C(=O)N(Cc1ccc(C)o1)C1CCS(=O)(=O)C1 (configuration not stated)	7	-2	6	-38	3.8	-2	4972
COc1ccc(OCc2cccc(C(=O)NN)c2)cc1	8	4	5	2	1.0	14	2605
N=C1/C(=C\c2ccc(OC(=O)c3ccc(F)cc3)cc2)C(=O)N=C2SC(N3CCCC3)=NN12	.	.	.	-20	.	-5	6427
O=C(NN=Cc1cccnc1)c1ccc(S(=O)(=O)N2CCCCCC2)cc1	6	0	1	.	5.4	.	.
Cc1c(NC(=O)C2CC(c3cccc(Br)c3)=NO2)c(=O)n(-c2ccccc2)n1C (configuration not stated)	2	2	0	-4	-3.3	-3	4239
CN(C)/C=N/c1[nH]ncc1C#N	.	.	.	-25	.	-2	3359
c1ccc2cc(C3N4CCCN34)ccc2c1 (configuration not stated)	15	2	1	-6	6.8	2	3984
CCN(CC)C(=O)C1CC(=O)OC1(C)C (configuration not stated)	6	3	2	-11	1.5	1	10181
Cn1c(=O)oc2cc(S(=O)(=O)N3CCC(C(=O)NCC4COc5ccccc5O4)CC3)ccc21 (configuration not stated)	11	8	6	-23	0.4	.	5781
CC(=O)c1ccc(NC(=O)c2cc(C)no2)cc1	3	2	10	-6	2.2	-9	3400
CCOC(=O)N1CCN(C(=O)c2ccc(C)c(S(=O)(=O)N3CCCCC3)c2)CC1	1	-8	2	-2	-0.4	14	5671
Cc1ccc(S(=O)(=O)N2CCC(C(=O)Nc3nnc(C4CCCC4)s3)CC2)cc1	10	-4	15	-28	5.7	0	8037
O=C(Nc1ccnc(-c2cccnc2)n1)c1cccs1	10	13	6	-32	2.5	11	4155
O=C(Nc1nc(-c2ccc(F)cc2)cs1)C1CCN(C(=O)c2ccc(F)cc2)CC1	6	0	14	-16	-11	6	.
CC(=O)Nc1ccc(NC(=O)c2nc(S(=O)(=O)Cc3ccccc3)ncc2Cl)cc1	0	1	7	-15	14	10	.
O=C(Nc1cc([N+](=O)[O-])ccc1Cl)c1ccc2c(c1)OCO2	18	8	-2	-19	0.9	-3	2557
COC(=O)c1ccccc1NC(=O)CN1CCN(c2ccccn2)CC1	9	13	2	-12	1.7	-9	4352
CC(=O)Nc1ccc(OCC(O)Cn2nc(C)c(Br)c2C)cc1 (configuration not stated)	.	.	3	-16	-1.8	-16	3571
O=C(CSc1nc2[nH]ncc2c(=O)n1-c1ccccc1)N1CCCCCC1	12	15	3	.	4.1	5	.
Cc1ccc2nc(NCCCNC(=O)c3cnccn3)c(C#N)cc2c1	8	8	-7	-16	6.3	-2	20118*
Cc1cccnc1NC(=O)CCC(=O)c1cccs1	6	4	-1	-18	0.5	.	3463
Cc1noc(C)c1NC(=O)N(C)C[C@@H]1Oc2ccc(NC(=O)CCC(F)(F)F)cc2CC(=O)N([C@@H](C)CO)C[C@@H]1C	4	4	-4	-15	-15	.	3938
COC(=O)/C=C/c1ccc2c(c1)S(=O)(=O)N(c1cccc(OC)c1)[C@H]2CC(=O)OC	.	.	.	-2	.	-4	5087

Going on with the list.
SMILES	Mtb hypoxia rep	Mtb hypoxia rep growth	Sa ugtP lethal	PrP UTR inh	RN4220 kill	BJeLR lethal	Bead autofluor
Cc1ccc2c(c1)/C(=N/OC(=O)c1ccc(F)cc1)CCS2	.	.	.	-16	.	-8	4189
CCN(CC)C(=S)SCC(=O)Nc1ncc2c(n1)CC(C)(C)CC2=O	-3	10	7	.	1.3	-5	4709
COc1ccc(C(=O)CSc2n[nH]c(-c3ccco3)n2)cc1	8	13	-6	-15	2.5	-3	17016*
S=C(Nc1ccccc1)NC1CCN(Cc2ccccc2)CC1	11	-3	4	-19	1.0	-4	4405
CC1CCCCC1NC(=O)CN(C)S(=O)(=O)c1ccc2c(c1)CCC(=O)N2 (configuration not stated)	3	6	4	2	5.0	1	5539
O=C(NCCN1CCCCC1)c1cc2ccccc2[nH]1	10	5	3	-6	-7.1	-5	2457
O=C(NN=Cc1ccco1)c1ccc(NC(=O)c2ccccc2Cl)cc1	9	-3	3	.	7.5	.	.
CSC1=N/C(=C\c2ccc(C)s2)C(=O)S1	5	7	13	-24	1.4	-1	2328

Only Bead autofluor (6 entries from above):
SMILES	Bead autofluor
O=C(N/N=C/c1ccc(OC(=O)c2ccccc2)cc1)c1cccc(O)c1	3678
COc1cc(OC)nc(NC(=O)NS(=O)(=O)c2ccc(F)cc2)n1	4025
CCCCOCCOCCOCCCC	5014
COc1cc(/C=N\NC(=O)CNC(=O)C(c2ccccc2)c2ccccc2)ccc1O	4432
COC/C=C/C1=CC2=CC(=O)C(C)(OC(=O)c3cnc4ccccc4n3)C(=O)C2=CN1C1CC1 (configuration not stated)	2715
O=C(NC1CCCC1)C(c1cccs1)N(Cc1ccco1)C(=O)c1csnn1 (configuration not stated)	3322

New compounds follow.
SMILES	Mtb hypoxia rep	Mtb hypoxia rep growth	Sa ugtP lethal	PrP UTR inh	RN4220 kill	BJeLR lethal	Bead autofluor
CCOC(=O)N1C(=O)C2(CCCCC2)N(c2ccccc2Cl)C1=S	-2	0	-10	-22	1.6	0	2429
CCCCSc1nc2ccccc2[nH]1	15	4	2	-47	3.9	9	3969
Cc1ccc(CNC(=O)C2CCN(S(=O)(=O)c3ccc(Br)s3)CC2)cc1	4	2	11	-15	-3.5	-5	3215
O=C(CSc1nnnn1-c1ccc(C(=O)O)cc1)NC1CCCCC1	1	9	9	-13	1.9	-8	6342
O=S(=O)(Nc1ccc(S(=O)(=O)Nc2ncccn2)cc1)c1ccc(Cl)cc1	0	-6	-8	-21	11	-2	5830
CCCN1C(=O)c2ccc(C(=O)Nc3nccs3)cc2C1=O	-2	0	-1	-12	1.0	-5	?
COC(=O)C(C(C)=O)C1=C/C(=N\S(=O)(=O)c2ccc(C)cc2)c2ccccc2C1=O (configuration not stated)	.	.	.	1	.	-1	9787
COC(=O)c1ccccc1N=C(SC)N(C)C	.	.	7	-5	1.0	-10	4495
CCn1c(SCC(=O)NCc2ccco2)nnc1-c1c[nH]c2ccccc12	16	0	9	-1	3.7	-4	15191
COc1ccccc1CNC(=O)COC(=O)Cn1cnc2ccccc21	18	1	5	-34	1.6	0	3133
CCOC(=O)c1ccc(NC(=O)Cn2nnc(-c3ccc(C)cc3)n2)cc1	.	.	7	-19	2.0	-6	3551
O=C(NN=Cc1ccccc1[N+](=O)[O-])c1ccc(COc2ccccc2-c2ccccc2)cc1	-4	6	-14	.	4.9	.	.
Cc1oc(-c2ccc(Cl)cc2)nc1CN1CCCC(C(=O)NCCCN2CCOCC2)C1 (configuration not stated)	-2	7	1	-18	0.0	6	?
O=C(c1ccccc1)N1N=C(c2ccccc2O)CC1c1ccccc1 (configuration not stated)	9	4	13	-20	-0.1	-7	3335
CSc1nc(SCCN(C)C)c2c3c(sc2n1)COC(C)(C)C3	6	-2	0	-3	-4.5	-5	5852
CCOc1cc(/C=N\NC(=O)C2C(=O)NCC2c2ccccc2)ccc1OC (configuration not stated)	.	.	.	5	.	-1	10779
Cc1nc(Nc2nc3ccccc3o2)nc2c1CCC2	8	1	2	35	2.2	1	14949
CC(=O)c1cccc(NC(=O)NNC(=O)c2ccc(-c3ccccc3)cc2)c1	1	-2	9	-10	4.8	-4	4545

Three compounds out of the list, arranged by length of the SMILES, smallest number first:
SMILES	Mtb hypoxia rep	Mtb hypoxia rep growth	Sa ugtP lethal	PrP UTR inh	RN4220 kill	BJeLR lethal	Bead autofluor
Cc1nc(Nc2nc3ccccc3o2)nc2c1CCC2	8	1	2	35	2.2	1	14949
COc1ccccc1CNC(=O)COC(=O)Cn1cnc2ccccc21	18	1	5	-34	1.6	0	3133
CCOc1cc(/C=N\NC(=O)C2C(=O)NCC2c2ccccc2)ccc1OC (configuration not stated)	.	.	.	5	.	-1	10779
